High-throughput results (PubChem)
YopH PTP inh: inhibitors of Yersinia enterocolitica YopH tyrosine phosphatase. 0.16% of 140,000 active. fluorescence Ex485/Em525. inhibition, %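 (about 10 µM by stock and volumes)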;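 active = inhibition of 50% or more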;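 also: controls were vehicle for no effect and minimum signal wells for full effect; inactives centre near -20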
Arbovirus anti: blocks arbovirus infection; arbovirus infection cell-based antiviral screen; inhibition, % at 10 µM; 0.37% of 200,000 active;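 active = inhibition from about 30%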;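 also: bluetongue infection of BSR cells; cell survival read as ATP light after 72 h; 0% = infected wells without compound and 100% = uninfected wells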
RecA intein inh: inhibitors of M. tuberculosis RecA intein splicing | P9WHJ3 | cell-free RecA intein splicing, fluorescence | inhibition, %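 (about 9 µM by stock and volumes)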 | 0.75% of 290,000 active; in the data active = inhibition above about 30%; inconclusive = no clear call, values can overlap the other calls;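 also: 0% = vehicle wells and 100% = reference inhibitor control wells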
Target sequence (P9WHJ3 whole entry, looked up): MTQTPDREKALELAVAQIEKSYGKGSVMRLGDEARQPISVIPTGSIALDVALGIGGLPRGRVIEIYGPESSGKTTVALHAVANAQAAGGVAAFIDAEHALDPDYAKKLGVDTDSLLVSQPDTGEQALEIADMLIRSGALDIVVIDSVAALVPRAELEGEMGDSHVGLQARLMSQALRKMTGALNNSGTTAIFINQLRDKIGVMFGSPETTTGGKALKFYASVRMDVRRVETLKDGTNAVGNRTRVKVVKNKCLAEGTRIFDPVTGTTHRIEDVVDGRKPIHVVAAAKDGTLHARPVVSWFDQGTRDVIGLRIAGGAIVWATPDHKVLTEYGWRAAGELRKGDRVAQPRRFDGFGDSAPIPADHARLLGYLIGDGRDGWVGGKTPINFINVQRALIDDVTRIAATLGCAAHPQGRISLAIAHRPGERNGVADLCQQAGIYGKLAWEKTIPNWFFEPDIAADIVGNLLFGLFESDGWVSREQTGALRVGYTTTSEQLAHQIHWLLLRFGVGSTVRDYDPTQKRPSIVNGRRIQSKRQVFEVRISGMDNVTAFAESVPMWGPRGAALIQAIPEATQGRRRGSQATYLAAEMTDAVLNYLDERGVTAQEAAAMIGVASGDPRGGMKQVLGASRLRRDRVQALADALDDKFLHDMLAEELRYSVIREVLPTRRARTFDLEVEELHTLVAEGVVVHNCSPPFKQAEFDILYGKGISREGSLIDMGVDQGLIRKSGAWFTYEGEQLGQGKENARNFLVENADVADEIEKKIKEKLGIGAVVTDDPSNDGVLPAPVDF
Mtb H37Rv: M. tuberculosis H37Rv growth inhibitors, H37Rv strain (AID 1626) | M. tuberculosis H37Rv growth inhibition; higher % means a stronger effect | one-dose inhibition, % at 10 µM; IC50 in µM for titrated hits | 0.95% of 220,000 active;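 active = confirmed in a dose series; inconclusive = inhibition above 80% but not taken into the dose series; inactive = below 80% or under 30% at every dose of the series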;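 also: bacteria incubated seven days before Alamar blue readout; 0% = bacteria only wells and 100% = bacteria with antibiotic wells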
Mtb bLac sens: beta-lactam sensitization of Mtb H37Rv; M. tuberculosis H37Rv growth with meropenem, percent inhibition; hits of this screen are not shown here; inhibition, % at 25 µM; 0.27% of 330,000 active;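 active = about 74% or more and at least 40 points above the plate without the antibiotic, then above 30% in a dose series; inconclusive = first-round hits that could not be retested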;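 also: growth measured after seven days incubation then overnight dye step; 0% = bacteria only wells and 100% = bacteria with antibiotic; twin plates without the antibiotic show which effects depend on it; some results filed as inactive read as strong as hits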
Arbovirus anti repeat: recorded beside Arbovirus anti, whose call it bears; inhibition, %; measured here: 10K subset replicate screen; many hits read low in the repeat;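 first of two repeat runs on a subset; 0% = infected and 100% = uninfected wells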
An asterisk follows results filed as active; ? = inconclusive; / = not tested or not shown. An excerpt; rates above refer to the full screens.

SMILES | YopH PTP inh | Arbovirus anti | RecA intein inh | Mtb H37Rv | Mtb bLac sens | others
COc1ccc(-c2nc3ccccc3n2CCC(C)C)cc1OC | -27 | -13 | 6.5 | 5% | 2
NC(=O)Nc1ccc(Nc2ccccc2)cc1 | / | / | 20 | 2% | -8
CCOc1ccccc1N(CC(=O)NC1CCCC1)S(=O)(=O)c1ccc(C)cc1 | / | / | 3.2 | / | 10
COc1ccc(Cc2nnc(NC(=O)c3ccco3)s2)cc1OC | -24 | -1 | 0.6 | -3% | -8
O=C(NCc1ccc(Cl)cc1)c1cccc2c1C(=O)N(CC1CCCO1)C2 (stereo not given) | / | / | 0.2 | / | 3
CCOc1ccc(NS(=O)(=O)c2ccc(N)cc2)cc1 | 21 | -6 | -0.3 | -6% | 1
CN(Cc1cccc(C(F)(F)F)c1)Cc1nc(-c2cnccn2)no1 | / | -8 | -12 | 3% | -9
CCC1CCCCN1C(=O)c1cc(-c2ccc(Cl)c(Cl)c2)on1 (stereo not given) | -25 | 4 | 14 | 10% | 67
CC(C)=C1Cc2ccccc2C1=O | / | 2 | -0.5 | -5% | 4
CCOc1ccc(C2/C(=C(/O)c3ccc4c(c3)CC(C)O4)C(=O)C(=O)N2CC2CCCO2)cc1 (stereo not given) | / | / | -0.4 | / | -7
COc1ccc(/C=N/Nc2cc(C)nc(-n3nc(C)cc3C)n2)cc1 | -21 | -27 | -1.8 | ? | 96
CN1C[C@H](CNC(=O)OCc2ccccc2)C[C@@H]2c3cccc4c3c(cn4C)C[C@H]21 | -11 | -30 | 12 | 8% | 34
Cc1nnc(SCC(=O)Nc2cccc(C(F)(F)F)c2)[nH]c1=O | -12 | -2 | 1.4 | -2% | -2
COc1ccc(Br)cc1C1NC(=O)NC(C)=C1C(=O)N(C)C (stereo not given) | -29 | 7 | 2.7 | -4% | -4
COCCNC(=S)N1CCC(C(=O)c2ccc3c(c2)OCCO3)CC1 | / | 2 | -1.5 | -3% | -5
Cc1cn(C2OC(COC(=O)c3ccccc3)C(O)C2Cl)c(=O)[nH]c1=O (stereo not given) | / | 8 | 1.6 | -11% | -4
Cc1nc(NC(=O)CN2CCN(c3cccc(Cl)c3)CC2)sc1C(=O)N(C)C | / | / | 0.3 | / | 3
COc1ccnc(Oc2ccccc2)c1-c1ncn[nH]1 | / | 0 | -2.4 | 3% | -5
CCNC(=O)C12CCC(C)(C(=O)C1Br)C2(C)C (stereo not given) | -10 | -2 | -0.2 | -6% | 5
COC(=O)c1cc(-c2ccc(S(=O)(=O)N3CCCCC3)cc2)c(C(F)(F)F)s1 | / | / | 6.7 | 13% | 42
Cc1cc(NC(=O)c2ccc(S(=O)(=O)N(C)CC3CCCO3)cc2)no1 (stereo not given) | / | 6 | 3.7 | -6% | -2
COC(=O)C1=C(C)NC(C)=C(C(=O)OC)C1/C=C/c1ccccc1 | 10 | -9 | -1.4 | -2% | -2
Cc1nc(-c2cc(C#N)c(Sc3ccc(Cl)cc3Cl)nc2C)cs1 | / | / | 5.0 | 4% | -5
COc1ccc(CCNC(=O)COc2ccc(S(=O)(=O)NC(C)C)cc2Cl)cc1OC | 4 | 3 | -1.2 | 9% | 0
Cc1ccc2[nH]c(=O)c(COC(=O)C3CCCO3)cc2c1 (stereo not given) | -29 | 6 | -0.3 | -5% | -26
Cc1ccc(NC(=O)Cn2c([N+](=O)[O-])cnc2C)cc1 | / | -3 | -2.2 | -8% | -3
COc1ccc(S(=O)(=O)N2CCN(C(=O)c3cc(-c4ccc(Br)cc4)n[nH]3)CC2)cc1OC | / | / | 6.4 | / | 4
COc1cc(C)nc(Oc2ccc(OCc3ccccc3)nn2)n1 | 3 | -2 | 1.7 | -6% | -6
O=C(NCCN1CCOCC1)c1c(O)nc2ccccn2c1=O | / | / | 0.7 | / | -2
Nc1nc(-c2ccc(Cl)cc2)c(S(=O)(=O)c2ccccc2)s1 | / | 3 | 3.1 | -1% | 5
Fc1ccccc1-c1ccc(/C=N/Nc2nc3ccccc3[nH]2)o1 | -45 | -12 | 5.0 | 20% | 38
N#C/C(=C/c1ccc([N+](=O)[O-])cc1)C(=O)Nc1ccccc1O | -3 | -5 | 7.8 | 0% | 7
O=C(Nc1ccccc1NC(=O)c1c(F)cccc1F)c1c(F)cccc1F | / | / | 5.4 | / | -4
COC(=O)C1=C(C)N2C(=O)CSC2=NC1c1ccc2c(c1)OCO2 (stereo not given) | / | 0 | 0.5 | -4% | 3 | Arbovirus anti repeat=-1
COCCCNC(=O)/C=C1\Sc2ccccc2N(Cc2ccccc2F)C1=O | / | 0 | 28 | 10% | -9
COc1cccc(C2=NNC(=NCc3ccccc3)SC2)c1 | / | -16 | 4.5 | 3% | -11
Cc1ccc(NC(=O)C(C)NS(=O)(=O)c2ccc(F)cc2)cc1C (stereo not given) | / | 4 | -0.2 | ? | 100
COc1cccc(-c2nc(NCC3CCCO3)c3ccccc3n2)c1O (stereo not given) | -45 | -29 | 1.8 | -1% | -5
CCN(C(=O)COC(=O)/C=C/c1c(C)nn(Cc2ccc(C)cc2)c1C)C1CCS(=O)(=O)C1 (stereo not given) | / | 11 | -0.2 | -4% | -3
O=C1c2ccccc2C(=O)c2c1ccc1c(=O)n(-c3ccccc3)[nH]c21 | -28 | -20 | -3.7 | 16% | 93
CCN(CC)C(=O)CSc1nnc(-c2cc(OC)cc(OC)c2)o1 | -38 | -8 | 1.5 | -6% | -4
CC(=O)CC1(O)C(=O)N(CN2CCN(c3ccccc3)CC2)c2ccccc21 (stereo not given) | -24 | -3 | 0.1 | -7% | -5
COc1ccc(CN(C)C(=O)C23CC4CC(CC(Cl)(C4)C2)C3)c(OC)c1OC | / | / | 5.8 | / | -7
COc1ccc(S(=O)(=O)NCCSc2ccc(C)cc2)cc1OC | -1 | 8 | 0.3 | 3% | -2 | Arbovirus anti repeat=15
O=C1CCCN1c1ccc(S(=O)(=O)N2CCCCC2)cc1[N+](=O)[O-] | / | -4 | 1.4 | -10% | -4
O=C(CSc1nc(=O)n(CCCN2CCOCC2)c2c1CCC2)Nc1ccc(F)cc1 | / | / | -1.2 | / | -4
Cc1cc(NC(=O)c2ccc3c(c2)C(=O)N(Cc2ccccc2)C3=O)no1 | / | -1 | -0.5 | -6% | 6
COc1ccc(NC(=O)CN(C)C(=O)/C=C/c2cn(-c3ccccc3)nc2-c2cccs2)cc1 | / | / | 0.2 | / | 28
Cc1nc(NS(=O)(=O)c2ccc(Br)cc2)c2c3c(sc2n1)CCC3 | -45 | 1 | -0.6 | -2% | 37
CCOc1ccc2nc(NC3=NC(C)(C)C=C(C)N3)nc(C)c2c1 | 13 | -23 | 1.8 | 7% | 9
Nc1ccc(-n2nc3ccccc3n2)cc1 | / | / | -11 | / | 91
CCOC(=O)c1c(NC(=O)c2ccn(CC)n2)sc2c1CCC2 | / | / | -2.2 | / | 15
COc1cccc(C(C2C(=O)CC(C)(C)CC2=O)C2C(=O)CC(C)(C)CC2=O)c1 | / | / | -0.2 | / | 12
C[C@@H]1CC=C[C@H]2[C@H]1C(=O)N(Cc1ccccc1)[C@H]2c1ccc(-c2ccoc2)cc1F | / | / | 17 | -4% | -6
C=CCCCCCCCCC(=O)N1CCN(c2cc3c(cc2F)c(=O)c(C(=O)O)cn3CC)CC1 | / | / | 2.3 | / | 6
O=C(N/N=C/C(Br)=C/c1ccccc1)c1ccc([N+](=O)[O-])cc1 | / | / | 2.1 | / | 14
O=C(COC(=O)C1CCC1)Nc1ccc(OC(F)F)cc1 | -36 | 0 | / | / | 4
CCN(c1ccccc1)S(=O)(=O)c1ccc(F)c(C(=O)O)c1 | -12 | -1 | 3.9 | -8% | 16
CN(C)c1nc(N(C)C)n(C(=O)c2cccs2)n1 | / | 0 | 1.6 | 2% | 2
CCCOC1CCCN(C(=O)CCc2nnc(Cc3cccc(C)c3)o2)C1 (stereo not given) | / | 3 | -0.8 | 0% | -6
New compounds follow
SMILES | YopH PTP inh | Arbovirus anti | RecA intein inh | Mtb H37Rv | Mtb bLac sens | others
COc1ccc(OC)c(-n2c(O)c(/C=C3\C(C)=Nc4ccccc43)c(=O)[nH]c2=O)c1 | / | / | 2.1 | 0% | 1
CCC(C)C(NC(=O)c1ccccc1NC(=O)c1ccc(OC)cc1)C(=O)NCc1ccco1 (stereo not given) | -42 | -4 | 4.6 | -1% | 6
COc1ccc(C(=O)N(Cc2ccccc2)c2cccc(C)c2)cc1S(=O)(=O)N1CCOCC1 | / | / | 4.8 | / | -16
O=[N+]([O-])c1cccc(-c2nc(-c3ccccc3)no2)c1 | / | -9 | -2.1 | -7% | -4
COc1ccc(C2CC(=O)c3c(C)nc(N4CCN(Cc5ccccc5)CC4)nc3C2)cc1OC (stereo not given) | -23 | -20 | 13 | 7% | 62
COCCCNCCCOc1ccc(C)cc1Br | -31 | -11 | -2.4 | 1% | 15
COc1cccc(NC(=O)CN(C)C(=O)CCc2nc3sc4c(c3c(=O)[nH]2)CCCC4)c1 | / | / | -4.2 | / | 2
O=C1Nc2cc3c(cc2C1=O)sc1ccccc13 | / | / | 2.2 | -5% | 0
COc1ccc(N/C=C(\C#N)c2nc3ccccc3n2C)c(OC)c1 | 9 | 0 | 0.1 | 14% | 95
O=C(NC1CCCCCC1)c1cccnc1Sc1ccccc1 | -15 | -2 | -1.1 | 2% | -4
CC12CN3CC(C)(CN(C1)C3c1ccc([N+](=O)[O-])o1)C2 (stereo not given) | / | / | -31 | 4% | 100
NC(=O)C1CCN(CC(=O)NCc2ccccc2)CC1 | -23 | 2 | -7.4 | 2% | -7
CN(Cc1ccccc1)C(=O)c1ccc(Cl)c([N+](=O)[O-])c1 | -26 | 4 | -0.1 | -1% | 1
Cc1sc2nc(SCC(=O)N3CCOCC3)[nH]c(=O)c2c1-c1ccccc1 | / | / | -0.7 | / | -10
CCn1c(CCNC(=O)c2ccc(OC)cc2)nnc1SCc1ccc(Cl)c(Cl)c1 | -14 | -19 | 1.6 | 7% | 79
NC(=O)c1nsc(C(=O)N(CC(=O)NC2CCCCC2)c2ccc(Cl)cc2)c1N | / | / | 0.8 | / | 0
O=C1CN(C(=O)CNCc2ccccc2Cl)c2ccccc2N1 | / | / | -0.6 | 9% | -5
CCc1ccc(CNC(=O)C2CCN(S(=O)(=O)N3CCC(C)CC3)CC2)cc1 | / | / | -2.3 | / | -9
Cc1cccc(-[n+]2c(C)cc(C)c3c(=O)[nH]c(=O)[nH]c32)c1 | -5 | -8 | 3.1 | 0% | -7
Cc1cc(C)n2nc(SCC(=O)N/N=C/c3ccc(F)cc3)nc2n1 | -31 | 3 | -0.2 | -16% | 1
C/C(=N\NC(=O)CSCc1ccccc1Cl)c1cccc(NC(=O)c2ccccc2)c1 | -20 | -9 | 3.3 | -2% | 46
Cc1cccc(N/C(N)=N/c2nc(C(F)(F)F)cc(C(F)(F)F)n2)c1 | / | -6 | -1.9 | 4% | -6
CCOc1cc(S(=O)(=O)Nc2ccccc2CC)ccc1Cl | -19 | -35 | 9.1 | 3% | -17
O=C(N/N=C/c1ccncc1)c1cc2c(ccc3ccccc32)o1 | -12 | 9 | -3.7 | / | 32
CC(=O)N1N=C(c2ccccc2OC(=O)/C=C/c2ccccc2)CC1c1ccccc1 (stereo not given) | / | / | -2.0 | -8% | 0
